From PubChem
D2 PAM – human D2 receptor positive allosteric modulation; AID 624464; P14416; DiscoveRx D2 beta-arrestin cells, luminescence, 90 min; 100% = 57 uM dopamine signal; potentiation, % (test concentration not listed); hit rate 0.23% among 360,000; active = potentiation of 50% or more; inconclusive = 30% to 50%; inactive = 30% or less;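 note: compound concentration not given in the record; tested on top of an EC20 dose of dopamine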
Target sequence (P14416 whole entry, looked up): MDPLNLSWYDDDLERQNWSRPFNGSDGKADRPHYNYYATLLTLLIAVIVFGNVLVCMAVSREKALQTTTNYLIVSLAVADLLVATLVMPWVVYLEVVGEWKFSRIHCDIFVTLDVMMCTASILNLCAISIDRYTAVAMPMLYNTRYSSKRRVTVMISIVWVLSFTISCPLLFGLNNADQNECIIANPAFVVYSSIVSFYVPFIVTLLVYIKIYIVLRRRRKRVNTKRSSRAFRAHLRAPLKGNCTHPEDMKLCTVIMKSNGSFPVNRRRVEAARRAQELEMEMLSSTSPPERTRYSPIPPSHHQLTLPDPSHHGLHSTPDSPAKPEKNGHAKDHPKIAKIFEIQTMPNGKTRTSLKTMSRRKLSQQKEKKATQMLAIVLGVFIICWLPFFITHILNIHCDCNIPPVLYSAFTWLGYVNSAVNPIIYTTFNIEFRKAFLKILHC
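PathHunter beta-arrestin assay in DiscoveRx D2 cells. Compounds were added with an EC20 of dopamine (50 nM final) for 90 min at 37 deg C. Luminescence was read 1 h after detection reagent, with 57 uM dopamine as the EC100 control.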
TRPML1 blocker – blocks the human TRPML1 channel. activity change, negative = inhibition, % (concentration not given with the values). hit rate 0.02% among 390,000. TRPML1-inducible cells, Ca2+ dye fluorescence, FDSS; active compounds read low; inhibition of EC80 agonist-evoked calcium signal; in the data active means activity change below about -50%; inconclusive means about -30% to -50%; inactive means above about -30%;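 note: stimulus is agonist 54-4 at its EC80 concentration; % is set by controls: 0 for no effect and ±100 for the full control effect; the text of the record puts the active cut at -80%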
Target sequence (Q9GZU1 whole entry, looked up): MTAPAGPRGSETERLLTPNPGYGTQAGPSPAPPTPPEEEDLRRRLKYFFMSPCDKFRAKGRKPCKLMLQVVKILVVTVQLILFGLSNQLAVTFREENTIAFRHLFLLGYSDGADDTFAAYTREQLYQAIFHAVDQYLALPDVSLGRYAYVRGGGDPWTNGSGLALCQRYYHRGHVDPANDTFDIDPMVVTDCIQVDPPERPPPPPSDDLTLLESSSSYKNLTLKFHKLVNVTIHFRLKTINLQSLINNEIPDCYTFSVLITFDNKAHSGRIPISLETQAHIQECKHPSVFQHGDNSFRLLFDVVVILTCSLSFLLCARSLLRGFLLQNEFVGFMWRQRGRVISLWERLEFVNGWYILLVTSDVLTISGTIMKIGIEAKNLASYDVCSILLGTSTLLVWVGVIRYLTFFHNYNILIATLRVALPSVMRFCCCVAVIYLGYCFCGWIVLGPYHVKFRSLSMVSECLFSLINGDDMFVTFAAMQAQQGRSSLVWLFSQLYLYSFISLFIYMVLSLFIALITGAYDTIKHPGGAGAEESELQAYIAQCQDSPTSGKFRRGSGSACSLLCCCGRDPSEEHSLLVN
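Tet-induced TRPML1-DL cells loaded with Ca8 no-wash calcium dye were read kinetically on FDSS. Compound addition was followed by EC80 agonist 54-4 (4 uM final); inhibition was read over 110 s.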
PINK1 modulator – modulators of PINK1 expression | hit rate 0.2% among 410,000 | Potency, µM (series often up to 76.6 µM), for the others: at the highest dose activation (PINK1 increase), actives largely listed as activators | PINK1 immunofluorescence, high-content cytometry, 24 h; active = well fitted activation curve with a large enough effect; inconclusive = small, poorly fitted or top-dose-only effect; inactive = flat fitted curve, though single readings scatter; cell line not stated here;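 note: potency is the fitted concentration of half-maximal effect; % of control where 0% means no effect; nearly all actives have a fitted effect of over 65% in size; a mitochondrial uncoupler was the plate control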
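Readout is PINK1 immunofluorescence, quantified alongside mitochondrial, cell and nuclear markers by laser-scanning microplate cytometry. Cells from a stable line were exposed to compound titrations (5 concentrations) for 24 hours, with CCCP controls.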
Six1-Eya2 inh – Six1/Eya2 interaction inhibition; AID 651725; AlphaScreen GST-Six1/His-Eya2 binding, biochemical; active compounds read low; control for the full effect not named in the record; hit rate 0.56% among 360,000; activity change, % (test concentration not listed); in the data active = activity change below about -65%; inconclusive = about -30% to -65%; inactive = above about -30%; note: % is set by controls: 0 for no effect and ±100 for the full control effect
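AlphaScreen with GST-Six1 and His-Eya2 (5X mix: 250 nM and 500 nM), glutathione donor and nickel acceptor beads; buffer 50 mM Tris pH 8.0, 300 mM NaCl, 1 mM TCEP; 1 h at 37 C in the dark.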
D2 ag – activates the human D2 dopamine receptor | DiscoveRx PathHunter D2 beta-arrestin, luminescence, 90 min; 100% = 57 uM dopamine signal | activation, % (test concentration not listed) | hit rate 0.084% among 360,000 | AID 624465; in the data active = activation above about 40%; inconclusive = about 15% to 40%; inactive = below about 15%; note: compound concentration not given in the record; the text of the record calls up to 30% inactive
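Agonist mode: compounds alone added to overnight-plated D2 PathHunter cells for 90 min at 37 C, with 57 uM final dopamine (EC100) defining full response. Beta-arrestin recruitment detected by chemiluminescent reagent, read after 1 h at ambient temperature.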
TRPML1 ag – activates the human TRPML1 channel; TRPML1-expressing cells, Ca2+ dye fluorescence, FDSS; host cell line not named in the record; reference of the full effect not given here; activation, % (no concentration beside the values); hit rate 0.12% among 410,000; AID 624414; in the data active = activation above about 50%; inconclusive = about 30% to 50%; inactive = below about 30%; note: 0% is about no effect; the text of the record puts the active cut at 80%
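Tet-induced TRPML1-DL cells, 1,500 per well, cultured overnight, were loaded with a no-wash Ca2+ dye for 45–90 min. Calcium fluorescence was recorded on the FDSS for 110 s after compound addition, before the EC80 agonist (4 uM 54-4) was added.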
Starred values were filed as active, the others as inactive; ? = inconclusive; . = not tested or not shown; [ ] = dose if it differs, or a comment.

SMILES	D2 PAM	TRPML1 blocker	PINK1 modulator	Six1-Eya2 inh	D2 ag	TRPML1 ag
Cn1c(=O)cc(OCC(=O)Nc2ccccn2)c2ccccc21	-7	9	-2.4%	4	2.4	0.6
CCOC(=O)C1=C(CSc2nc3c(cc2C#N)CCC3)OC(N)=C(C#N)C1c1ccccc1 (configuration not stated)	-2	0	.	-2	0.4	0.0
O=C(Nc1nc2c(F)cc(F)cc2s1)C1COc2ccccc2O1 (configuration not stated)	-1	35	3.7%	-1	-0.6	0.9
CCCn1c(CN2CCN(C)CC2)nc2ccccc21	-8	-1	1.2%[38.3 µM]	-7	-2.5	-0.5
CC(C#N)On1c(SC(C)C#N)nc2ccccc2c1=O (configuration not stated)	0	-2	0.8%	-2	-0.2	0.3
COc1cccc(S(=O)(=O)Nc2ccc(C(=O)N3CCCCCC3)cc2)c1	3	9	-1.2%	7	2.4	0.1
Cc1ccc(S(=O)(=O)Nc2cccc(C(=O)NCC(c3ccco3)N(C)C)c2)cc1F (configuration not stated)	-25	-3	-0.6%	-3	0.9	-0.3
Cc1cccc(N(Cc2cc3ccccc3[nH]c2=O)C(=O)c2ccco2)c1C	9	9	-2.0%	-1	-8.6	-0.6
Fc1ccc(CSc2nc(NCc3ccccc3)c3ccccc3n2)cc1	.	9	17%	.	.	1.7
CCOc1ccccc1NC(=O)COC(=O)CNS(=O)(=O)c1ccc(C)cc1	-5	8	-2.4%	3	1.6	0.2
COCCCNC(=O)c1ccc2c(c1)OCO2	-11	2	-1.0%	-1	-4.3	-0.9
O=C1CCc2cc(S(=O)(=O)N3CCN(c4ccccc4)CC3)cc3c2N1CCC3	5	-5	?	1	-0.5	0.0
CC(=O)Nc1cc(-c2cccc(NS(C)(=O)=O)c2)cn2c(-c3ccc(F)c(Cl)c3)cnc12	-7	.	1.3%	-22	3.6	-0.5
Cc1cc(C)n2c(Br)c(CN3CCCC(C)C3)nc2n1 (configuration not stated)	-12	-3	-1.5%	-2	-1.1	-0.3
O=C(CCNS(=O)(=O)c1cccs1)Nc1ccccc1F	-3	1	0.4%	4	-2.6	-0.4
O=C(O)C(F)(F)C(NCc1ccccc1)c1ccccc1 (configuration not stated)	1	-1	-3.0%	7	0.3	-0.7
CCCNC(=O)N(C)C[C@H]1Oc2ncc(C#CCc3ccccc3)cc2C(=O)N([C@H](C)CO)C[C@H]1C	-6	-29	2.6%	18	-2.7	0.5
CC(=O)NC(CC(=O)Nc1nccs1)c1ccccc1 (configuration not stated)	-11	25	0.4%	-2	-4.3	2.2
CN(C)CCCCNCCCNC(=O)/C=N\O	-3	15	0.2%[38.3 µM]	-14	0.2	0.5
COc1ccccc1C(=O)NNC(=O)C(=O)NC(C)C	-5	14	2.0%	8	0.6	1.0
O=C(CN1CCN(C(=O)c2ccccc2)CC1)Nc1ccc(Cl)cc1F	-9	-6	-0.2%	-2	-0.1	-0.7
CCCn1c(O)c(CN2CCCC(C)C2)c(C)c(C#N)c1=O (configuration not stated)	1	-10	0.9%	3	3.4	1.0
Cc1ccc(N(C(=O)CNC(=O)c2ccco2)C(C(=O)NCC2CCCO2)c2ccccc2)cc1 (configuration not stated)	-4	11	-1.7%	-1	-5.7	-0.4
CN1CCC(=O)N([C@H](CC#N)c2ccccc2)CC1	-4	0	1.9%	12	0.3	0.3
Cc1cccc(N2CCN(C(=O)c3ccncc3)CC2C)c1 (configuration not stated)	11	-18	4.6%	0	0.2	-0.3

Compounds shown so far with a Cl atom, in the order listed:
SMILES	D2 PAM	TRPML1 blocker	PINK1 modulator	Six1-Eya2 inh	D2 ag	TRPML1 ag
CC(=O)Nc1cc(-c2cccc(NS(C)(=O)=O)c2)cn2c(-c3ccc(F)c(Cl)c3)cnc12	-7	.	1.3%	-22	3.6	-0.5
O=C(CN1CCN(C(=O)c2ccccc2)CC1)Nc1ccc(Cl)cc1F	-9	-6	-0.2%	-2	-0.1	-0.7

Full records as entered above. Screens in order: D2 PAM	TRPML1 blocker	PINK1 modulator	Six1-Eya2 inh	D2 ag	TRPML1 ag
Results for CN(C)CCCCNCCCNC(=O)/C=N\O : -3	15	0.2%[38.3 µM]	-14	0.2	0.5
Results for CCCn1c(CN2CCN(C)CC2)nc2ccccc21 : -8	-1	1.2%[38.3 µM]	-7	-2.5	-0.5
Results for Cc1cccc(N(Cc2cc3ccccc3[nH]c2=O)C(=O)c2ccco2)c1C : 9	9	-2.0%	-1	-8.6	-0.6
Results for O=C(CN1CCN(C(=O)c2ccccc2)CC1)Nc1ccc(Cl)cc1F : -9	-6	-0.2%	-2	-0.1	-0.7

Next section.
SMILES	D2 PAM	TRPML1 blocker	PINK1 modulator	Six1-Eya2 inh	D2 ag	TRPML1 ag
O=P(O)(O)c1ccccc1OCCOCCOCCOCCOc1ccccc1P(=O)(O)O	-16	13	0.1%	2	3.5	-0.2
O=C(/C=C/c1ccc2c(c1)OCO2)Nc1nc2ccc(F)cc2s1	-8	10	0.4%	-17	0.9	1.1
Cc1ccc2cc(/C=N/NC(=O)CN3CCOCC3)c(Cl)nc2c1	-14	3	0.1%	-1	-3.5	-0.6
O=C1CCCC(=O)N1c1ccc(F)cc1	-6	9	1.4%	7	-3.0	-0.2
COc1ccccc1N1CCN(C(=O)/C=C/c2c(Cl)nc3ccccn23)CC1	2	-10	-0.3%	3	2.2	0.1
CCCCCCNC(=O)OC12CN(C(=O)OC(C)C)N(C(=O)OC(C)C)CC1(O)CN(S(=O)(=O)c1ccc(C)cc1)C2 (configuration not stated)	-2	-1	3.8%	-5	0.9	-0.2
CC1CC(=O)Nc2ccccc2N1C(=O)Nc1ccc(F)cc1 (configuration not stated)	-6	-3	-0.7%	10	0.1	-0.3
COCCCNC(=O)c1ccc(CS(=O)(=O)c2ccc(Br)cc2)o1	-3	1	-1.9%	6	-3.9	0.4
COc1ccc(C(=O)/C=C2/c3ccccc3CC(C)(C)N2C)cc1OC	-7	-9	7.1%	-7	-0.6	0.4
CCN(Cc1ccccc1)C(=O)CN(c1ccc(OC)cc1)S(=O)(=O)c1c(C)nn(C)c1C	.	-9	-0.1%	.	.	-0.5
Cc1cc(NC(=O)c2ccccc2Cl)c(C(C)C)cc1O	-7	2	-0.3%	4	-3.2	0.4
COc1ccccc1S(=O)(=O)CC(O)COc1ccc(C#N)cc1 (configuration not stated)	10	-4	4.0%	14	-1.6	-0.2
O=C(Nc1ccc2oc(-c3ccccc3F)nc2c1)c1ccc2c(c1)OCCO2	10	-5	-0.4%[38.3 µM]	-24	1.7	1.3
COCCNc1oc(-c2ccc(F)cc2)nc1C#N	-8	16	-1.4%	0	2.9	-0.3
O=C1N(c2ccccc2)C(=Nc2ccccc2)SC12CC2	-6	9	5.4%	-1	-5.5	0.8
O=C(NN=C1CCCCCCC1)c1ccc(F)cc1	-13	-13	-0.2%	-3	-5.1	1.0
O=C(CCc1ccccc1)Nc1ccc(F)cc1F	-11	6	-1.7%[38.3 µM]	2	-3.6	-0.3
Cc1ccc(-c2nc(-c3ccccc3)no2)cc1	0	-6	7.7%	30	0.5	-0.3
CCOC(=O)N1CCC(NC(=O)Cn2nc(-c3ccccc3)ccc2=O)CC1	2	-5	-5.1%[38.3 µM]	-3	0.6	0.2
CC(=O)NCCC1CCCCN1Cc1nc(Cc2cccc(C(F)(F)F)c2)no1 (configuration not stated)	-5	7	1.2%	2	0.9	0.4
CCNc1nc(NCC)n2c(SCC(=O)Nc3ccc(OC(F)F)cc3)nnc2n1	4	-4	9.1%	-10	1.4	0.1
NC(COCc1ccccc1)c1csc(Nc2ccc(S(N)(=O)=O)cc2)n1 (configuration not stated)	4	.	-0.5%	-10	6.5	-0.7
CCOc1ccc(NC(=O)C(=O)NCC(c2cccnc2)N2CCc3ccccc32)cc1 (configuration not stated)	.	-14	-0.4%	.	.	0.3
CCOc1cc(C(=O)OCC(=O)Nc2c(C)cccc2C)ccc1OCC(=O)N1CCOCC1	-3	-12	0.7%	1	-2.3	0.2
O=C(C1=C[C@@H](c2ccc(Br)cc2)C[C@@H](OCc2ccc(CO)cc2)O1)N1CCN(Cc2ccc3c(c2)OCO3)CC1	-6	2	1.3%	-19	2.1	0.8
New compounds follow
SMILES	D2 PAM	TRPML1 blocker	PINK1 modulator	Six1-Eya2 inh	D2 ag	TRPML1 ag
Cc1ccc(CC(=O)Nc2ccc(C(=O)N3CCCCC3)cc2)cc1	-8	-6	0.9%	-9	-5.1	-0.1
COc1ccc(NC(=O)CSc2c3c(nc4ccc(Cl)cc24)CCCC3)cc1Cl	.	4	2.0%	.	.	1.6
COc1ccc(CNC(=O)Nc2cccc(C)c2)cc1	-11	10	-0.2%	0	-2.7	-1.1
Cc1ccc(C(c2cccc(Br)c2)c2c(C)[nH]c3ccccc23)s1 (configuration not stated)	.	-4	18%	.	.	2.2
CC(CCc1ccccc1)NC(=O)c1ccccc1Cl (configuration not stated)	-5	0	-0.7%	4	3.2	0.2
COc1ccc(S(=O)(=O)N2CCCCC2C)cc1 (configuration not stated)	-2	-6	0.2%	3	-2.3	1.5
COc1cc(C(=O)NCc2nnc(SCC(=O)NCCc3ccccc3)o2)cc(OC)c1OC	-11	0	-0.5%	2	-3.1	-0.1
CC(=O)c1cccc(NC(=O)CCn2nc(C)c(S(=O)(=O)N3CCCCC3)c2C)c1	.	-9	0.3%	.	.	0.6
COc1ccc(C(=O)COC(=O)COc2ccc(C)c(C)c2)cc1	-5	0	-1.3%	28	2.3	3.2
O=C(COc1ccccc1)N1N=C(c2cccnc2)CC1(O)C(F)(F)F (configuration not stated)	-14	-19	0.0%	-1	-2.3	0.5
Cc1ccc(NC(=O)C2CCCN2C(=O)NC2CCCCC2)cc1C (configuration not stated)	8	1	-1.5%	15	2.7	2.2
Cc1ccc(OCc2cc(C(=O)N(C)CCc3nc4ccccc4[nH]3)no2)cc1C	-18	19	-0.1%	0	5.4	1.8
CSc1nn(CC(=O)Nc2cc(C)ccc2C)c(N)c1S(=O)(=O)c1ccccc1	.	-14	0.2%	.	.	0.1
COc1ccccc1CN1CCNC(=O)C1CC(=O)NCCOc1cccnc1 (configuration not stated)	-3	22	5.2%	0	1.1	-0.4
O=C(CC(=O)Nc1cccc(Cl)c1Cl)Nc1cccc(Cl)c1Cl	-2	27	11%	1	0.3	0.1
C=CCN(CC(=O)Nc1c(C)cccc1CC)C(=O)SCCC	-12	2	-2.0%	-7	-3.8	-1.3
COc1cccc(CNC(=O)c2ccc(CS(=O)Cc3ccc(Cl)cc3)o2)c1 (configuration not stated)	.	-6	0.7%	.	.	0.3
Cc1nnc(N/N=C/c2cccc(OCc3ccc(Cl)c(Cl)c3)c2)n1N	74*	24	0.9%	-10	15	0.8
COc1ccc(/C=N/OCC(=O)Nc2ccc3c(c2)OCO3)c(OC)c1	1	-19	0.5%	-2	3.8	4.9
Cc1cc(N/N=C/c2ccco2)c2ccccc2n1	2	11	-1.5%	-11	-3.0	5.7
Cc1ccc(NC(=O)CSc2nnc3scc(-c4ccc(Cl)cc4)n23)cc1	.	12	2.6%	.	.	4.3
Cc1ccc2oc(C(=O)Nc3ccc(S(=O)(=O)Nc4nccc(C)n4)cc3)cc(=O)c2c1	.	-9	1.1%	.	.	-0.5
